GLA inh pH 4.5 = inhibitors of human alpha-galactosidase A at pH 4.5; 230,000 tested, under 10 active; activity change, negative = inhibition, % at 105 µM; AID 1467; P06280; purified enzyme, 4-MU-alpha-Gal fluorescence, pH 4.5; inconclusive = small, poorly fitted or top-dose-only inhibition, or a rising curve; inactive = flat fitted curve, though single readings scatter; no compound was filed as active;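 further: 0% = full activity with enzyme and -100% = basal without enzyme; dose as in the result columns while the protocol names 77 µM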
Rango dissoc inh = prevents RanGTP from dissociating the Rango-importin beta complex; Biochemical FRET Rango-importin beta, RanGTP-induced dissociation; Potency, µM (doses to about 46.1 µM), for the others: at the top dose activity change, negative = inhibition; hit rate 0.071% among 340,000; AID 540253; active means falling FRET ratio curve, often poorly fitted, with flat reads before Ran was added; inconclusive means other falling curves, or compound fluorescence or quenching; inactive means flat or rising ratio curve;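 further: potency means the concentration at half of the fitted maximal effect; % of control where 0% means no effect; nearly all actives have a fitted effect of over 45% in size; -100% = wells without RanGTP and RCC1; the record marks most hits as doubtful in a second field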
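Compounds preincubate 5 min with complex of recombinant Rango and importin beta in PBS with 1 mM DTT. Ran (0.6 uM) loaded with 2 mM GTP plus 0.2 uM RCC1 starts dissociation; FRET is recorded 45 min later.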
Rango complex inh = prevents formation of the Rango-importin beta complex | AID 540263 | Q14974 | Rango CFP/YFP FRET sensor + importin beta, 45 min | hit rate 0.031% among 340,000 | Potency, µM (series often up to 92.2 µM), for the others: top-dose inhibition of complex formation; active = rising FRET ratio curve, often small or poorly fitted; inconclusive = mostly compound fluorescence or quenching in the first reads; inactive = flat curves in all reads;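 further: potency means the concentration at half of the fitted maximal effect; 0% = DMSO wells and 100% = buffer wells lacking importin beta; nearly all actives have a fitted effect of over 15% in size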
Target sequence (Q14974 whole entry, looked up): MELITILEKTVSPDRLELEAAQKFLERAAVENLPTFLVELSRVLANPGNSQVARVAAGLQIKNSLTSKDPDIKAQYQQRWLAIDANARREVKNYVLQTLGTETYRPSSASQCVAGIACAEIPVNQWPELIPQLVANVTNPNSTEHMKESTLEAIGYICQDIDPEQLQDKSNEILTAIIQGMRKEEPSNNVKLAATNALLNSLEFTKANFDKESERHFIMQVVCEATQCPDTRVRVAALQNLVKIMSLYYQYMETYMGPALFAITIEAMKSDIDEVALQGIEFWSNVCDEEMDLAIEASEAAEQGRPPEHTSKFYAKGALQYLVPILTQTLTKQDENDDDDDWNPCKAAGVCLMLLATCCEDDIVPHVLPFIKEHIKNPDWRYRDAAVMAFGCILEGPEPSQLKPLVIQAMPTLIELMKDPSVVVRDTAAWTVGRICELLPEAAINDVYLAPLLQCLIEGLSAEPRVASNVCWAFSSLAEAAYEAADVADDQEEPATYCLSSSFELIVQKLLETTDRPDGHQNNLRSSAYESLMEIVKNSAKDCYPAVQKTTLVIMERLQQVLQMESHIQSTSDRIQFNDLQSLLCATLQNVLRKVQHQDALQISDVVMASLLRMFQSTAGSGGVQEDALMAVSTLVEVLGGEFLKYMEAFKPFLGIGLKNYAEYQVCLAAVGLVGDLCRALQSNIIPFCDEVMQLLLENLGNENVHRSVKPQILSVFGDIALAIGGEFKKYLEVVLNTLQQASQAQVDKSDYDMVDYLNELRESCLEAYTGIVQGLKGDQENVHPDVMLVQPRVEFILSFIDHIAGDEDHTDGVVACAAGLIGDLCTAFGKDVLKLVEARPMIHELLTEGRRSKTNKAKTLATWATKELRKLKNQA
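FRET biosensor Rango (snurportin 1 IBB between N-terminal EYFP and C-terminal Cerulean), 50 nM in PBS/1 mM DTT/0.02% Tween-20/0.1% BSA, preincubated 5 min RT with compound; 0.125 microM importin beta added, 45 min RT, CFP/YFP FRET ratio read.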
miR-21 reporter = miR-21 reporter, rising signal; Potency, µM (titrated, usually from 38.3 µM), for inactives: at the top dose reporter change, positive = more light; HeLa miR-21 FLuc reporter, luciferase, 48 h; 340,000 tested, under 10 active; active = well fitted rising curve with a large enough effect; inconclusive = small, poorly fitted or top-dose-only effect; inactive = no such curve, though single readings can be large or run the other way;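 further: % of control where 0% means no effect; miR-21 action dims this reporter so a rising signal means less miR-21 action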
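Compounds were titrated across several concentrations (up to approximately 40 uM) and incubated 48 hours with HeLa miR-21-FLuc reporter cells (miR-21 target sequence downstream of FLuc, endogenous miR-21). Readout was firefly luciferase luminescence after lytic detection reagent.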
* = called active by the depositor; ? = inconclusive; . = not tested or not shown. This is a subset; rates above refer to the full screens.

#	canonical_smiles	GLA inh pH 4.5	Rango dissoc inh	Rango complex inh	miR-21 reporter
1	COc1ccc(/C=N/NC(=O)c2ccn[nH]2)cc1CSc1ccccn1	.	2%	0.5%	-50%
2	O=C(Nc1ccc(F)cc1)c1ccccc1S(=O)(=O)c1ccccc1[N+](=O)[O-]	-7	7%	2.0%	-9%
3	Nc1ccn(-c2ccc(Cl)cc2)c(=O)c1	-11	-9%	?	2%
4	O=C(COC(=O)CCN1C(=O)c2ccccc2C1=O)Nc1ccc(S(=O)(=O)N2CCCC2)cc1	-2	-2%	0.3%	0%
5	COc1cc2[nH]c(=S)n(Cc3cccs3)c(=O)c2cc1OC	2	14%	0.5%	3%
6	Cc1ccc(S(=O)(=O)N2CCN(Cc3cc(=O)n4ccccc4n3)CC2)c(C)c1	.	-2%	?	.
7	COc1ccc(NC2=CC(=S)NC(C)(C)C2)cc1	-18	-15%	?	-8%
8	CCOc1ccccc1C(=O)Nc1ccc(S(=O)(=O)N2CCOCC2)cc1	0	22%	-4.6%	-4%
9	CN1C(=O)/C(=C/c2cn(CC(=O)N3CCCCC3)c3ccccc23)NC1=S	.	?	?	5%
10	COCCCNC(=S)N/N=C/c1ccc(N(C)C)cc1Cl	-8	?	?	-63%
11	NC(=O)C1CCN(c2nc(-c3ccccc3N)cs2)CC1	.	1%	-3.3%	.
12	COc1ccc(S(=O)(=O)n2cnc3cc(C)c(C)cc32)cc1	-7	17%	2.4%	20%
13	CSc1nc(S(C)(=O)=O)nc2[nH]c(=O)[nH]c12	.	2%	-1.7%	.
14	CCOc1ccc(NS(=O)(=O)c2ccc(C(=O)NCCCN3CCCC3=O)cc2)cc1	.	-11%	-2.2%	15%
15	COc1ccccc1N1CCN(C(=O)c2ccc(Cl)c(S(=O)(=O)N3CCOCC3)c2)CC1	.	8%	0.9%	1%
16	CC(C)CC(=O)NC(=S)Nc1ccc(N2CCCC2)c(Cl)c1	8	-2%	0.3%	-28%
17	Cc1ccc(C)c(OCCC(=O)OCC(=O)NC(=O)NC2CCCCC2)c1	.	12%	?	.
18	CCCCOP(=O)(OCCCC)C(O)c1ccc(N(C)C)cc1 (stereo not given)	-13	-1%	-1.7%	4%
19	COc1ccc(-c2c(NC(C)=O)n(C)c3ccccc3c2=O)cc1	7	-17%	-1.0%	-2%
20	COc1ccc(C2/C=C\CN(C(=O)OCc3ccccc3)CC(=O)N2Cc2ccc(F)cc2)cc1 (stereo not given)	-1	7%	-0.6%	6%
21	Cc1cc(C(=O)OCC(=O)Nc2cc(Cl)ccc2C)c(C)o1	.	-13%	?	.
22	c1ccc2c(c1)nc(NCCN1CCOCC1)c1nncn12	6	-8%	0.4%	-9%
23	CC(O)CCC(=O)NNC1=CC(=O)CC(C)(C)C1 (stereo not given)	6	.	.	0%
24	Oc1ccc[n+](CCCCC[n+]2cccc(O)c2)c1	2	10%	3.2%	-3%
25	CCCOc1cccc(C2C(C(=O)c3ccc(C)o3)=C(O)C(=O)N2CCN2CCOCC2)c1 (stereo not given)	.	8%	0.0%	-1%
26	O=C(NCc1ccccc1F)Nc1ccc([N+](=O)[O-])cc1	-1	17%	-1.8%	2%
27	O=C(Oc1ccc2ccccc2c1)c1ccccc1	-2	0%	-0.9%	-12%
28	Nc1ccccc1OCCOc1ccccc1N	.	3%	-5.3%	-23%
29	CCC(C)c1ccccc1NC(=O)COc1ccc(-n2cnnn2)cc1 (stereo not given)	.	21%	-0.3%	.
30	CCOC(=O)c1cnn2c1[nH]c(=O)c1ccccc12	0	-18%	0.6%	-11%
31	Cc1ccc(S(=O)(=O)C(C#N)c2nc3ccccc3nc2N2CCN(C)CC2)cc1C (stereo not given)	3	?	-1.2%	15%
32	COc1ccc(N2C(=O)CC(NCc3ccc(F)cc3)C2=O)cc1 (stereo not given)	1	3%	2.4%	-7%
33	O=C(NCCc1ccccn1)c1ccc(OC(F)F)cc1	0	3%	-0.3%	-26%
34	CC(=O)Nc1ccc(S(=O)(=O)NC2(C(F)(F)F)C(=O)Nc3c2c(=O)[nH]c(=O)n3Cc2ccco2)cc1 (stereo not given)	12	27%	-0.5%	-1%
35	CCOC(=O)C1(C(=O)OCC)NC(=O)CC1CC (stereo not given)	.	5%	2.8%	.
36	CC(=O)Nc1cccc(N(C)C)c1	6	17%	2.7%	-4%
37	O=C(COC(=O)/C=C/c1ccc(OC(F)F)cc1)NCc1cccs1	3	1%	3.6%	0%
38	COc1ccc(Cl)cc1NC(=O)CN(C)C(=O)CN1C(=O)NC(C)(c2ccc3ccccc3c2)C1=O (stereo not given)	.	2%	0.9%	.
39	CCOC(=O)C(CCCOc1ccccc1)C(=O)OCC	-23	11%	-1.0%	-9%
40	O=C(N/N=C/C=C/c1ccco1)/C(=C/c1ccccc1)NC(=O)c1ccccc1	-4	-20%	-5.2%	-6%
41	COc1ccc(OCc2cccc(C(=O)Nn3cc([N+](=O)[O-])cn3)c2)cc1	5	-5%	-1.7%	-15%
42	COC(=O)c1ccc(NC(=O)CCNS(=O)(=O)c2cccc3nonc23)cc1	1	-1%	6.2%	-5%
43	COc1ccc2c(c1OC)C(=O)OC2	.	5%	-1.3%	-1%
44	S=C(Sc1ccc(Cl)cc1)Sc1ccc(Cl)cc1	1	.	.	22%
45	CC1Cc2ccccc2N1CC(=O)NCc1ccccc1Cl (stereo not given)	3	19%	-2.2%	-7%
46	O=C(O)C1CCCCC1C(=O)Nc1ccccc1C(=O)N1CCN(c2ccc(F)cc2)CC1 (stereo not given)	6	-7%	2.2%	-4%
47	O=c1[nH]c2ccccc2nc1-c1c[nH]c2ccccc12	.	?	?	-38%
48	COc1ccc(-c2nn(CCC#N)cc2C(=O)Nc2ccccn2)cc1OC	.	-3%	-0.4%	-4%
49	O=C(NC(=S)Nc1ccc(S(=O)(=O)Nc2ncccn2)cc1)c1cccc(Br)c1	10	11%	0.6%	3%
50	CC1CN(C(=O)Nc2cccc(Cl)c2)C2(CCCCCC2)O1 (stereo not given)	1	-14%	4.4%	-7%

Carrying on:
#	canonical_smiles	GLA inh pH 4.5	Rango dissoc inh	Rango complex inh	miR-21 reporter
51	CN(CC(=O)Nc1cccc(Cl)c1)S(=O)(=O)c1ccc2[nH]c(=O)oc2c1	.	1%	-0.4%	-7%
52	Cc1cccc2cc(COC(=O)COc3ccccc3)c(=O)[nH]c12	?	8%	2.3%	-4%
53	CCn1c(SCC(=O)NC(=O)NCc2ccco2)nc2sc(C)c(C)c2c1=O	1	8%	-1.8%	2%
54	COc1ccc(C(=O)Oc2cc(/C=N/NS(=O)(=O)c3ccccc3)ccc2OC)cc1	-6	6%	-1.3%	-4%
55	COc1ccc(-c2cc(=O)c(C(=O)c3ccc(C)cc3)n[nH]2)cc1	11	11%	2.1%	-10%
56	CC1=NN(C(N)=S)C(=O)C1N=Nc1ccccc1Cl (stereo not given)	.	-12%	4.3%	-29%
57	Cc1cc(C)cc(NC(=O)COc2ccc(C(=S)N3CCOCC3)cc2)c1	-1	-10%	-3.0%	-1%
58	O=C(CNC(=O)c1ccccc1F)Nc1ccccc1C(F)(F)F	-3	-15%	-0.4%	0%
59	CC(Sc1ccccc1)C(=O)NNC(=O)c1ccncc1 (stereo not given)	.	-15%	1.4%	.
60	Cc1ccc(NS(=O)(=O)c2ccc3c(c2)OCCCO3)cc1S(=O)(=O)N1CCOCC1	.	-20%	-4.5%	.
61	CCN1CCN(S(=O)(=O)c2ccc(Cl)c(C(=O)NCCc3ccccc3)c2)CC1	.	7%	8.7%	.
62	CCCN1C(=O)c2cc(C(=O)NCc3ccc(OC)cc3)ccc2C1O (stereo not given)	-13	5%	-7.3%	-11%
63	CCOC(=O)C1=CN(Cc2cccc(Br)c2)S(=O)(=O)N(CC)C1C (stereo not given)	.	14%	0.1%	.
64	CC[C@]12c3[nH]c4ccc(Cl)cc4c3CCN1C(=O)[C@@H](CC(=O)NCCCN(C)C)C[C@@H]2C(=O)N1CCN(C(=O)c2ccco2)CC1	.	10%	-0.9%	.
65	Cc1ccc(-c2[nH]nc3c2C(c2cccnc2)C(C#N)=C(N)O3)cc1 (stereo not given)	0	1%	0.7%	10%
66	CCCC(=O)Nc1c(-c2cccs2)c(=O)c2ccccc2n1C	-6	-5%	-1.4%	1%
67	Cc1c(Cc2ccccc2)c(=O)oc2cc(OCC(=O)N3CCC(C(N)=O)CC3)ccc12	.	1%	-0.5%	8%
68	CCNC(=O)NC(=O)C(C)Sc1nc2cc(C(=O)OC)ccc2c(=O)n1-c1ccccc1 (stereo not given)	0	7%	-1.2%	-5%
69	COc1cccc(N2CC(C(=O)Oc3ccc4ccccc4c3)CC2=O)c1 (stereo not given)	-6	23%	-3.5%	-5%
70	CC(=O)NC(CC(=O)NCC(c1ccco1)N(C)C)c1ccccc1 (stereo not given)	11	4%	-1.8%	0%
71	O=C(Nc1cccc(-c2nnco2)c1)c1cccs1	-2	-11%	-0.5%	-5%
72	CCOC(=O)C1(CCOc2ccccc2)CCN(Cc2cnc(C)[nH]2)CC1	4	-4%	4.6%	-4%
73	O=C(c1ccc2c(c1)OCO2)N(CC1CCCO1)C1(C(=O)NC2CCCC2)CCCCC1 (stereo not given)	4	21%	4.5%	-1%
74	O=C(OCC(=O)N1CCc2ccccc21)c1nc(Cl)ccc1Cl	-2	24%	-1.0%	-5%
75	CCOCC(=O)N1CCN(c2ccc(F)cc2)CC1	-3	1%	0.0%	-1%

Overlap with the part before: 5 entries, then new ones.
#	canonical_smiles	GLA inh pH 4.5	Rango dissoc inh	Rango complex inh	miR-21 reporter
71	O=C(Nc1cccc(-c2nnco2)c1)c1cccs1	-2	-11%	-0.5%	-5%
72	CCOC(=O)C1(CCOc2ccccc2)CCN(Cc2cnc(C)[nH]2)CC1	4	-4%	4.6%	-4%
73	O=C(c1ccc2c(c1)OCO2)N(CC1CCCO1)C1(C(=O)NC2CCCC2)CCCCC1 (stereo not given)	4	21%	4.5%	-1%
74	O=C(OCC(=O)N1CCc2ccccc21)c1nc(Cl)ccc1Cl	-2	24%	-1.0%	-5%
75	CCOCC(=O)N1CCN(c2ccc(F)cc2)CC1	-3	1%	0.0%	-1%
76	Clc1ccc(OCc2nnc(-c3ccccc3Br)o2)c(Cl)c1	-1	23%	-5.4%	-50%
77	Cc1cccc(Nc2c([N+](=O)[O-])c(=O)n(C)c3ccccc23)c1	-1	4%	-4.5%	-30%
78	C=CCN(CC=C)C(=S)NC(=O)c1ccc([N+](=O)[O-])cc1	-4	23%	3.4%	1%
79	CCOC(=O)CSC1=C(C#N)C(c2ccc(C)s2)CC(=O)N1 (stereo not given)	-10	9%	-4.9%	27%
80	Cc1ccc(NC(=O)c2cc(=O)c3ccccc3o2)c(C)c1	2	6%	-3.2%	-40%
81	CCN1CCc2c(sc(N)c2C#N)C1	14	?	?	-4%
82	CCOC(=O)/C(=N\Nc1ncnc2ccccc12)c1ccc(C)cc1	.	14%	-0.1%	-3%
83	Cc1cc(C(=O)CN2C(=O)NC3(CCC(C)CC3)C2=O)c(C)n1C (stereo not given)	-1	22%	-1.3%	-2%
84	CCN(CC(=O)Nc1ccc(NC(C)=O)cc1)C(=O)Cc1c(Cl)cccc1Cl	.	7%	-2.2%	-4%
85	Cc1ccc(CS(=O)(=O)CCC(=O)NCCCN2CCCC2=O)cc1	-5	-4%	2.1%	-5%
86	CCOc1cccc(N(C(=O)c2ccco2)C(C(=O)NC2CCCC2)c2cccnc2)c1 (stereo not given)	.	-8%	0.2%	3%
87	COc1cc(C(=S)N2CCOCC2)cc(OC)c1OC(=O)c1cc([N+](=O)[O-])cc([N+](=O)[O-])c1	-14	-7%	-0.5%	-1%
88	Cc1ccc(S(=O)(=O)N2CCN(C(=O)c3ccco3)CC2)c(C)c1	.	0%	1.2%	2%
89	O=C(COc1ccc(Cl)cc1)NCc1nnc(SCC(=O)N2CCCCCC2)o1	6	2%	-0.9%	-1%
90	COC(=O)c1ccccc1NC(=O)c1sc(Cl)nc1C	.	24%	-0.3%	-17%
91	COc1cc(CN2CCC(C(=O)N3CCC(C)CC3)CC2)cc(Br)c1O	5	-10%	?	3%
